# Bioassay records as filed in PubChem.
# CBX7 inh – blocks human CBX7 binding to H3K27me3 peptide; AID 1224903; 66,000 tested, 1.1% active; normalised signal (fraction of DMSO) (test concentration not listed); AlphaScreen His6-CBX7 / biotin-H3K27me3 peptide binding; active compounds read low; O95931; in the data active = normalised signal below about 0.5;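 also: 100 nL library stock added to about 20 µL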
# Target sequence (O95931 whole entry, looked up): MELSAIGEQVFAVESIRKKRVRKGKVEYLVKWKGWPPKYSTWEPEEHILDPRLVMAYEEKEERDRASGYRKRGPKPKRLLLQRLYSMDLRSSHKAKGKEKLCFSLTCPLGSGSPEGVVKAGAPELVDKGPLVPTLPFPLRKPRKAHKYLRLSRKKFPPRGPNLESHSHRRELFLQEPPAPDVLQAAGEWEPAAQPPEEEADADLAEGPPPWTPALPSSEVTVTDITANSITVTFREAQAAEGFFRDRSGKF
# CBX7 inh z-score – second read-out of CBX7 inh, no call of its own (marks repeat the call); z-score; measured here: z-score of CBX7 signal; some inactives read as strong as hits; reference of the scale not given here;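 same signal on another scale; lower means less binding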
# The depositor's hits bear a star. Not all compounds are listed, so the mix of outcomes need not match the whole.
SMILES,CBX7 inh,CBX7 inh z-score
Cc1cc(N2CCN(C)CC2)nc2ccc(NC(=O)CCC(=O)NCCN3CCOCC3)cc12,0.97,-1.4
COc1cccc(-c2cc(C(=O)Nc3ccccc3C(F)(F)F)no2)c1,0.94,-0.68
Cc1ccc(C(C)C)c(OCC(=O)Nc2c(C(=O)c3ccccc3)oc3ccccc23)c1,1.1,0.31
CCCCNC(=O)c1cc(-c2cccc(Cl)c2)on1,1.3,2.7
COc1ccc(-c2nc(N3CCN(Cc4ccc(Cl)cc4)CC3)[nH]c(=O)c2C#N)cc1,0.9,-1.8
Cc1onc(-c2ccccc2Cl)c1C(=O)Nc1ccc(CC#N)cc1,1.1,1.3
COc1ccc2nc(N3CCC(C(=O)NCCN4CCOCC4)CC3)sc2c1,1.2,2.7
CCOc1ccc(-c2cn(-c3ccc(C)c(F)c3)c(=O)[nH]2)cc1,0.97,-0.34
Cc1cc2nn(-c3ccc(Cl)cc3)nc2cc1NC(=O)c1cccs1,1,0.013
COc1ccc(-n2c(-c3ccc(Cl)cc3)cc3c2CC(C)(C)CC3=O)cc1,0.88,-0.8
Cn1c(=O)c(=O)n(C)c2cc(S(=O)(=O)N3CCCC3C(=O)O)ccc21 (stereo not drawn),0.98,-0.35
O=C(NCc1ccc2c(c1)OCO2)C1CC(=O)N(c2ccc(OCc3ccc(F)cc3)cc2)C1 (stereo not drawn),1,0.87
Cc1c(Cl)cccc1NC(=O)c1cc(-c2ccc(Br)cc2)nc2ccccc12,0.99,-0.3
CC1=Nc2cc(C(=O)NCCCN3CCCC(C)C3)ccc2Sc2ccc(Cl)cc21 (stereo not drawn),0.95,-0.74
CCCNC(=O)COc1ccc(-c2nn(C)c(=O)c3ccccc23)cc1,0.98,-0.49
CC12CCC(C(=O)N3CCc4ccccc4C3)(CC1=O)C2(C)C (stereo not drawn),1,0.52
CN(C(=O)c1cc(-c2ccc(O)cc2)on1)c1ccccc1,0.97,-1.1
O=C(c1cc(-c2ccccc2Cl)nc2ccccc12)N1CCN(c2ncccn2)CC1,1,0.52
CC(C)Cn1c(SCc2ccccc2)nnc1-c1ccncc1,1,0.32
Cc1ccc2[nH]cc(S(=O)(=O)c3ccc(Cl)cc3)c(=O)c2c1,1.1,3.9
Cc1nc2c(-c3ccc(F)cc3)c(C)nn2c(C)c1CCC(=O)Nc1ccc2c(c1)OCCO2,1,1.1
CN(CCCNC(=O)CC(C(=O)N1CCc2ccccc21)n1ccnc1)C1CCCCC1 (stereo not drawn),1,1.1
Cc1cccc(NC(=O)c2cnn(-c3ccccc3)c2C2CCN(C(=O)OC(C)(C)C)CC2)c1C,0.95,-1.4
Cc1ccc2cc(CCNC(=O)c3ccccc3Br)c(=O)[nH]c2c1C,1,0.52
COc1cc(OC)cc(-c2nc(-c3ccncc3)no2)c1,1.1,0.083
CCOC(=O)c1c(NC(=O)c2cccnc2)sc(C)c1C,1.1,0.59
CCOc1ccc2nc(Nc3nccc(C)n3)nc(C)c2c1,1,0.8
COc1ccc(NC(=O)Cn2cnc3c(nnn3Cc3ccc(F)cc3)c2=O)c(OC)c1,0.81,-3.2
CC(=O)c1ccc(N2CCN(S(=O)(=O)c3ccc4c(c3)CCN4C(=O)C3CC3)CC2)cc1,0.98,-0.54
CC(C)CCNC(=O)Cn1nc(-c2ccccc2)ccc1=O,0.99,-0.31
Cc1ccc(NC(=O)c2sc3ncn(CC(=O)N4CCCCC4)c(=O)c3c2C)cc1F,0.99,-0.095
Cc1ccc(CCNC(=O)C2CCCN(Cc3nc(-c4ccccc4C)oc3C)C2)cc1 (stereo not drawn),0.8,-0.27
Cn1nc(-c2ccccc2F)c2cc(C(=O)NC3CCCC3)sc21,0.76,-0.32
COc1ccc(CCNC(=O)c2cccc(NC3=NC4CS(=O)(=O)CC4S3)c2)cc1OC (stereo not drawn),0.85,-1.6
CC1=Nc2cc(C(=O)NCc3ccc4c(c3)OCO4)ccc2Sc2ccc(C)cc21,0.93,-3.2
COc1ccc(OCc2nc(-c3ccc(Cl)cc3)no2)cc1,1.4,0.43
CCOC(=O)c1cnc2c(C)cc(C)cc2c1Nc1ccc(C)c(C)c1,1.3,2.6
O=C(Nc1ccc(Cl)cc1)N(CCCN1CCOCC1)Cc1cccnc1,1.1,0.068
Cc1ccc(CNc2nc3ccccc3n2CCN2CCOCC2)cc1,0.99,-0.39
Cc1ccc(NC(=O)CSc2nnc3n(N)cnn23)nc1,1,0.53
CCC(=O)Nc1ccc(-c2nnc3n2CCCCC3)cc1,1.1,0.48
COc1cccc(NC(=O)Cn2cc(S(=O)(=O)c3ccccc3)c(=O)c3cc(C)ccc32)c1,0.87,-1.8
COCCNC(=O)C1CCN(c2nn3c(=O)cc(C)nc3s2)CC1,1.1,0.82
Cc1ccc(Sc2cc(C(=O)NCCCN3CCOCC3)c3ccccc3n2)cc1,0.95,-1.5
Cc1ccc(NC(=O)CSc2nnc(CNC(=O)c3c(F)cccc3Cl)o2)cc1,1,0.23
CCC(C)[C@@H](C(=O)Nc1ccc2c(c1)OCO2)N1Cc2ccccc2C1=O (stereo partly drawn),0.59,-1.1
Cc1ccc(OCC(O)Cn2c(C)nc3ccccc32)cc1 (stereo not drawn),0.91,-0.83
Cc1nnc2ccc(NCCc3ccccc3)nn12,0.98,-0.64
CCCN(CCC)CCCNC(=O)c1ccc2c(c1)N(CC)C(=O)c1ccccc1S2=O (stereo not drawn),1,0.78
COC(=O)c1c(NC(=O)COc2ccc(C)cc2Br)sc2c1CCCC2,1,0.65
CC1CCN(c2nc3ccc(C(=O)NCc4cccc(Cl)c4)cc3s2)CC1,1,1.1
CCOC1CCCCC1NS(=O)(=O)c1ccc(Cl)cc1 (stereo not drawn),0.98,-0.44
COC(=O)c1cc2occc2n1Cc1cccc(C)c1,0.98,-0.63
COc1ccc(-c2cc3nc(C)c(CCC(=O)NCc4ccccn4)c(C)n3n2)c(OC)c1,1,0.0089
C=CCN1C(=O)N(c2ccc(F)cc2)C(=O)C1CC(=O)Nc1ccccc1 (stereo not drawn),1,0.034
O=C(CC1(O)C(=O)N(Cc2ccccc2Cl)c2ccccc21)c1ccc(Br)cc1 (stereo not drawn),0.72,-0.31
CCCn1c(=N)n(CC(O)c2ccc(Cl)c(Cl)c2)c2ccccc21 (stereo not drawn),0.98,-0.7
CCCc1ccc(-c2ccc(C(=O)Nc3ccc(C(=O)OC)cc3)cc2)nc1,1.2,2.1
Cc1cc(Nc2cccc(F)c2)n2nc(C)nc2n1,0.99,-0.13
Cc1cc(=O)n2nc(N3CCC(C(=O)NCc4ccc(F)cc4)CC3)sc2n1,1.3,3
# The list goes on:
SMILES,CBX7 inh,CBX7 inh z-score
CCOC(=O)N1CCN(c2cc(=O)n(-c3cccc(Br)c3)c(=O)[nH]2)CC1,1,0.53
COc1cc(CNc2ccc(N3CCOCC3)c(Cl)c2)ccc1OCc1ccccc1F,0.72,-9.9
CCOC(=O)c1cccc(C(=O)Nc2cccc(F)c2)n1,1.3,3.3
COc1cccc(C2=NOC(C(=O)Nc3ccc(OC(F)(F)F)cc3)C2)c1OC (stereo not drawn),1,0.47
COc1ccccc1-c1c(C)nn2c(N3CCCC3)cc(C)nc12,0.79,-2.3
O=C(NC1CCCCC1)c1cc(-c2cccnc2)nc2ccc(S(=O)(=O)N3CCCCCC3)cc12,1,0.91
COC(=O)c1cnn2c(C)c(Cc3ccc(C)cc3)c(C)nc12,0.97,-0.64
O=C1CC(/C=C/c2ccc(Br)cc2)=Nc2ccccc2N1,0.99,-0.17
O=S(=O)(c1ccc(Cl)cc1)c1nc(-c2cccc(Br)c2)oc1NCc1ccccc1,0.7,-12
CCCCCCNC(=O)c1c[nH]c2ccc(S(=O)(=O)N(C)c3ccc(C(C)C)cc3)cc2c1=O,1.1,1.1
Cc1ccccc1CN1C(=O)c2ccccc2S(=O)c2ccc(C(=O)N3CC(C)CC(C)C3)cc21 (stereo not drawn),0.86,-2.6
CCc1ccc(-c2nc(CN3CCC(C(=O)NCCc4ccccc4)CC3)c(C)o2)cc1,0.93,-0.79
COCc1nnc(NC(=O)c2cccc(Cl)c2)s1,1.1,1
CN1CCN(C(=O)C(Cc2ccccc2)NS(=O)(=O)c2ccc3c(c2)CCC(=O)N3)CC1 (stereo not drawn),1,0.24
CC(=O)Nc1cccc(NC(=O)c2c(-c3c(Cl)cccc3Cl)noc2C)c1,1,1.3
COc1ccc(NC(=O)CSc2nc(-c3ccc(OC)c(OC)c3)[nH]c2-c2ccc(C)cc2)cc1,0.87,-6
COc1ccc(-c2cc(C(=O)N3CCN(C(c4ccccc4)c4ccccc4)CC3)no2)cc1OC,0.89,-1.3
C=CCN(c1ccccc1)S(=O)(=O)c1ccc2[nH]cc(C(=O)N3CCOCC3)c(=O)c2c1,1.2,3
CCOC(=O)c1cnc2c(OC)cccc2c1NCCc1ccccc1,1.1,2
O=C(C1CCC1)N1CCc2cc(S(=O)(=O)N3CCN(c4ccc(F)cc4)CC3)ccc21,0.99,-0.43

# Next section, starting with the last 2 of the part before.
SMILES,CBX7 inh,CBX7 inh z-score
CCOC(=O)c1cnc2c(OC)cccc2c1NCCc1ccccc1,1.1,2
O=C(C1CCC1)N1CCc2cc(S(=O)(=O)N3CCN(c4ccc(F)cc4)CC3)ccc21,0.99,-0.43
CCOc1ccccc1NC(=O)c1sc2ncn(CC(=O)N3CCCCC3C)c(=O)c2c1C (stereo not drawn),0.96,-1.1
CCCCN(C)C(=O)c1cn(-c2ccc(Cl)cc2)c(=O)c2ccccc12,0.96,-0.59
Cc1ccccc1-c1nc(CN2CCC(C(=O)N3CCC4(CC3)OCCO4)CC2)c(C)o1,0.99,-0.15
Cc1cc(C)cc(NC(=O)CSc2nccn2-c2cccc(C)c2)c1,0.92,-0.081
Cc1cccc(NC(=O)c2oc3ccc(S(=O)(=O)N4CCOCC4)cc3c2C)c1C,0.77,-3.1
C(=C\c1nc(N2CCOCC2)c2ccccc2n1)/c1ccccc1,1.2,4.1
CC(NC(=O)c1cccc(F)c1)C(c1cccs1)N1CCN(c2ccccc2F)CC1 (stereo not drawn),0.88,-1.3
COc1ccc(Cc2nc3ccccc3[nH]2)cc1OC,1,0.31
Cc1cccc(Nc2nc3ccccc3nc2NS(=O)(=O)c2ccccc2)c1C,0.93,-1.9
CN(c1ccc(Br)cc1)S(=O)(=O)c1ccc2nc(-c3ccccc3)[nH]c2c1,0.74,-0.34
Cc1ccccc1NC(=O)c1cnn(-c2ccccc2)c1NC(=O)c1cccc(F)c1,0.94,-0.61
Cc1ccc(NC(=O)CC2Nc3ccccc3N(CC(=O)Nc3ccccc3F)C2=O)cc1 (stereo not drawn),0.99,-0.2
Clc1ccc(OCCCn2c(-c3cccs3)nc3ccccc32)cc1,0.6,-7.6
COc1cccc(-c2nc(CS(=O)(=O)CC(=O)N3CCc4ccccc43)c(C)o2)c1,0.98,-0.98
COc1ccc(NC(=O)c2ccc(CNc3c(NC4CCCC4)c(=O)c3=O)cc2)c(OC)c1,0.74,-0.59
Cc1ccc2nc(Nc3ccc(Cl)cc3Cl)nc(-c3ccccc3)c2c1,1.5,8.5
CC1CCN(Cc2ccc(NC(=O)C3CCN(c4ccc(N5CCOCC5)nn4)CC3)cc2)CC1,0.98,-0.2
COc1ccc(CNC(=O)C2CCN(c3nn4c(=O)cc(C)nc4s3)CC2)cc1,1,1.6
Fc1ccc(Nc2c3c(nc4ccc(Cl)cc24)CCCC3)cc1Cl,0.95,-0.067
COCCNC(=O)c1cc2nc3c(c(C(F)(F)F)n2n1)CCc1ccccc1-3,1.3,2.5
Cc1ccc(Cc2c(C)nc3nc(SCC(=O)Nc4ccc(C)cc4C)nn3c2C)cc1,0.81,-2
CCOc1ccc(NC(=O)CSc2nc3nc(C)c(Cc4ccccc4)c(C)n3n2)cc1,1.1,0.6
O=C(NCc1cccnc1)c1cc(-c2cccc(Cl)c2)on1,1,0.28
Cc1oc(-c2cccs2)nc1CSCC(=O)NCCc1ccc(Cl)cc1,0.93,-1.3
Cc1ccccc1Nc1nc(-c2ccc(Cl)cc2)cs1,0.81,-4.1
COc1ccc(CN2C(=O)N(c3ccc(F)cc3)C(=O)C2CC(=O)Nc2ccccc2)cc1 (stereo not drawn),1,-0.0022
CCN(CC)CCn1c(=N)n(CC(O)COc2ccc(C)cc2)c2ccccc21 (stereo not drawn),0.97,-0.18
CCOC(=O)c1[nH]c2c(c1C)C(=O)CC(c1ccc(C)cc1)C2 (stereo not drawn),1.1,2.9
CCCc1sc(N2CCN(C(=O)c3ccccc3)CC2)nc1-c1ccccc1,0.56,-1.2
COc1ccc(C2CC(=O)N(CC(=O)Nc3cccc(C)c3C)c3ccccc3S2)cc1OC (stereo not drawn),0.9,-1.5

# An excerpt from above in order of the CBX7 inh z-score value, lowest first:
Compound,CBX7 inh z-score
COc1ccc(CN2C(=O)N(c3ccc(F)cc3)C(=O)C2CC(=O)Nc2ccccc2)cc1 (stereo not drawn),-0.0022
O=C(NCc1cccnc1)c1cc(-c2cccc(Cl)c2)on1,0.28
CCOC(=O)c1[nH]c2c(c1C)C(=O)CC(c1ccc(C)cc1)C2 (stereo not drawn),2.9

# Laid out differently: 6 of the compounds above.
# Each structure is followed by: CBX7 inh	CBX7 inh z-score
> CCOc1ccc(NC(=O)CSc2nc3nc(C)c(Cc4ccccc4)c(C)n3n2)cc1
→ 1.1	0.6
> O=C(NCc1cccnc1)c1cc(-c2cccc(Cl)c2)on1
→ 1	0.28
> Cc1oc(-c2cccs2)nc1CSCC(=O)NCCc1ccc(Cl)cc1
→ 0.93	-1.3
> Cc1ccccc1Nc1nc(-c2ccc(Cl)cc2)cs1
→ 0.81	-4.1
> COc1ccc(CN2C(=O)N(c3ccc(F)cc3)C(=O)C2CC(=O)Nc2ccccc2)cc1 (stereo not drawn)
→ 1	-0.0022
> CCN(CC)CCn1c(=N)n(CC(O)COc2ccc(C)cc2)c2ccccc21 (stereo not drawn)
→ 0.97	-0.18
